Sa growth 42C – S. aureus growth inhibition; S. aureus RN4220 growth, OD600, 20 h, 42 °C; stronger effect = lower value; relative growth, % (test concentration not listed); hit rate 0.53% among 170,000;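 active means growth at 42 °C up to 50% and 20 or more points under that at 30 °C, or under 10% at both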;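 further: 300 nL library stock went into each well; scaled to the means of positive and negative controls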
HCMV NEC inh – cytomegalovirus nuclear egress complex inhibition; inhibition, % (concentration not given with the values); hit rate 0.15% among 190,000; HTRF UL50-UL53 interaction, normalized percent inhibition; AID 1918969;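 active means both replicates at 50% or more, plus weaker picks with an unusually low signal ratio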;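 further: stock transfer was 100 nL into about 20 µL; 0% = negative control wells and 100% = wells with untagged competitor protein; inactives centre near -12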
GIV-Gai inh – GIV-Galpha-i interaction inhibition | AID 1224905 | Galpha-i3/FITC-GIV peptide fluorescence polarization, 90 min; stronger effect = lower value; scaled: aluminum fluoride 0%, vehicle 100% | hit rate 0.42% among 210,000 | P08753 | percent of control (FP), % (no concentration beside the values);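 active means replicate mean at 85% of control or lower, very high polarization wells dropped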;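 further: wells of about 15 µL received 100 nL stock; the first replicate is given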
Target sequence (P08753 whole entry, looked up): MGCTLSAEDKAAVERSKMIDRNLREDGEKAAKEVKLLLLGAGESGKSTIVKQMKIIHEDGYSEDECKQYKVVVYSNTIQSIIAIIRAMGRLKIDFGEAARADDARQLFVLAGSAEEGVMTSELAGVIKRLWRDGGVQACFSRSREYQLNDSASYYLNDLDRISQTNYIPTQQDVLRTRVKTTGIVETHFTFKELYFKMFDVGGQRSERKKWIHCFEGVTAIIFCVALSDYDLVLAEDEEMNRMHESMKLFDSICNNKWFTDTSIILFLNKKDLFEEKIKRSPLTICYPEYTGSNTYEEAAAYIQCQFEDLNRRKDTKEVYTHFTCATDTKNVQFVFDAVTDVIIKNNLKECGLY
Sa growth 42C second temp – recorded beside Sa growth 42C, whose call it bears; relative growth, %; measured here: growth at 30 °C;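 optical density after 20 h as mean of two plates; 100% = untreated growth and lower means inhibition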
* = called active by the depositor; · = no result given; & = joins results of further samples.

Molecule,Sa growth 42C,Sa growth 42C second temp,GIV-Gai inh,HCMV NEC inh
CCOCCOC(=O)C1=C(C)NC2=C(C(=O)CC(C)(C)C2)C1c1ccc(OCc2ccccc2)c(OC)c1 (stereo not given),·,·,100,-15
CC1(C)CC(=O)C(=Cc2cn(-c3ccccc3)nc2-c2cccs2)C(=O)C1,89,77,107,-10
O=C(c1ccco1)N1CCN(C(=O)C2CC(c3ccc(Cl)cc3)=NO2)CC1 (stereo not given),102,84,104,·
CCOCCCNC(=O)CCCN1C(=O)c2cccnc2Oc2ccc(Cl)cc21,·,·,103,6
COc1cc2[nH]c(=S)n(CCc3cnc[nH]3)c(=O)c2cc1OC,106,76,110,-11
COc1nc(-c2ccccc2)c2cc(C)ccc2n1,93,88,102,-17
CCN1CCN(C(=O)CNC(=O)Cn2cnc3c(c2=O)C2CCCCC2S3)CC1 (stereo not given),·,·,105,-12
Cc1ccc2c(=O)c(C(=O)c3ccc(F)cc3)cn(CC(=O)NCc3ccccc3)c2n1,96,95,106,·
CCOC(=O)c1c(C)c2c(n1C)CCC/C2=N\O,102,86,100,·
Cc1cccnc1NC1CCCCC1,102,87,·,-20
O=C(Nc1ccccc1)c1cccc(N2CCCC2=O)c1,120,76,104,-37
CCCCNS(=O)(=O)c1ccc(N2CCCCS2(=O)=O)cc1,86,87,99,·
O=C(CN1C(=O)C2CCCCN2c2ccc(C(=O)N3CCCC3)cc21)NCCc1cnc[nH]1 (stereo not given),·,·,104,-16
CCC(=O)N1CCc2cc(S(=O)(=O)CCC(=O)Nc3ccc(Cl)cc3)ccc21,103,83,103,0
O=C1CC(c2ccccc2)Cc2[nH]c(=O)c(-c3nc(-c4ccc(F)cc4)cs3)cc21 (stereo not given),92,93,110,2
CCc1ccc(NC(=O)c2c(C(=O)Nc3ccc(C(=O)OC)cc3)sc3nc(C)cc(=O)n23)cc1,·,·,105,4
COc1ccc2c(c1)c1c(c(=O)n(-c3ccccc3C)c(=O)n1CC(=O)Nc1c(C)cccc1C)n2C,110,91,103,·
O/N=C/c1nc2cc(Cl)ccc2o1,114,94,·,-20
O=C(O)c1cc(-c2ccc(O)cc2)on1,85,91,·,-2
CCc1ccccc1NC(=O)N1CCN(c2nnc(C)c3c(C)n(-c4ccccc4)nc23)CC1,95,90,101,·
CCc1nn(CC(=O)NCC(C)c2ccccc2)c(=O)c2cc3c(OC)cccc3n12 (stereo not given),92,97,104,-10
O=C(/C=C/c1ccc2c(c1)OCCCO2)N1CCN(C2CCS(=O)(=O)C2)CC1 (stereo not given),93,92,·,-22
Cc1ccc(-c2csc(-c3cccnc3)n2)c(C)c1,86,46,106,-26
Cc1nnc(NC(=O)CSc2nnc(CNC(=O)c3ccccc3F)n2C)s1,88,99,108,-2
CCOC(=O)c1c(NC(=S)Nc2ccc(OC)cc2)sc2c1CC(C(C)C)OC2 (stereo not given),94,90,104,·

Molecule,Sa growth 42C,Sa growth 42C second temp,GIV-Gai inh,HCMV NEC inh
CCCCC1CCC(C(=O)Nc2c3c(nn2-c2ccc(F)cc2)CS(=O)(=O)C3)CC1 (stereo not given),99,78,102,·
Cc1onc(-c2ccccc2)c1NC(=O)N(C)CCc1ccccn1,102,102,106,2
COc1cc(/C=C2\C(=O)NC(=O)N(c3cc(C)cc(C)c3)C2=O)c([N+](=O)[O-])cc1OC,·,·,110,-31
Cc1nn(-c2ccc(N3CCOCC3)nn2)c(C)c1CCC(=O)NCc1ccccc1F,88,90,102,·
C=CCNC(=O)C1CC(=O)N(c2ccc(OCC(=O)NCc3ccccc3)cc2)C1 (stereo not given),114,98,107,-13
CC(=O)N1CCc2cc(Br)cc(S(=O)(=O)CCC(=O)Nc3ccc(C)cc3Cl)c21,119,81,98,5
Cc1ccc(CN2CNc3c(-c4ccccc4F)c(C)nn3C2)cc1,92,86,103,-66
COc1cc(-c2noc(CSc3nc(-c4ccccc4)cc(=O)[nH]3)n2)cc(OC)c1OC,132,92,98,·
COc1ccc(Nc2nc(=S)[nH]c3cc(OC)c(OC)cc23)cc1,68,65,106,·
N=C1S/C(=C\c2ccc(N3CCOCC3)cc2)C(=O)N1c1ccc(Br)cc1,·,·,107,-2
CCn1c(=O)c2c(nc3n2CCCN3C2CCCCC2)n(C)c1=O,·,·,106,-22
NC(=O)c1ccc(NC(=O)c2cc3ccccc3oc2=O)cc1,104,78,100,-31
COc1ccc(C2C(C#N)(C#N)C2(C#N)C#N)cc1,105,102,111,-6
Cn1c(=O)c2cc(N)cnc2n(C)c1=O,112,90,·,-53
CCc1ccccc1N1C(=O)N(CC(=O)c2ccc(Cl)cc2)c2ccccc2S1(=O)=O,109,104,110,·
CN(C)c1ccc(/C=N/N)cc1,95,87,101,1
CCOc1ncccc1C(=O)O,88,95,105,3
Cc1cccc(NC(=O)CCN2C(=O)/C(=C\c3ccccc3)SC2=S)c1,96,81,104,·
C=C(C)CN1CCN(c2cc(C)nc3c(C)c(-c4ccc(OC)c(OC)c4)nn23)CC1,·,·,97,-22
CCC(C)NCc1nc(N)nc(Nc2ccccc2C)n1 (stereo not given),88,88,·,-16
CCSc1nnc(NC(=O)CSc2nnc(Cc3cccn3C)n2-c2ccc(F)cc2)s1,88,89,98,·
CC12CC3(C)CC(CN)(C1)CC(CCN)(C2)C3,97,86,·,-18
CCc1ccc(-n2c(SCc3ccccc3Cl)nc3[nH]ncc3c2=O)cc1,114,103,102,·
CCS(=O)(=O)N1CCCc2cc(C(=O)Nc3cc(OC)c(OC)cc3C(=O)OC)ccc21,·,·,97,3
CC(C)(C)c1ccc(OCCCC(=O)Oc2ccc(-c3nnco3)cc2)cc1,102,107,·,-3

Molecule,Sa growth 42C,Sa growth 42C second temp,GIV-Gai inh,HCMV NEC inh
O=C(Cn1ncn2c(cc3ccccc32)c1=O)NCc1ccccc1,108,93,103,-4
O=S(=O)(NCc1csc(-c2ccccc2)n1)c1ccc(Cl)cc1,96,89,104&103,-1&-25
CC(C)NC(=O)c1cc2n(n1)CC(C)(C(=O)NC1CCCCC1)N(C)C2=O (stereo not given),·,·,102,8
CCOC(=O)c1c(NC(C)=O)nc(SC)n1Cc1cccs1,100,81,99,-5
O=C(Cc1c(Cl)cccc1Cl)NC1CCC(O)CC1 (stereo not given),98,94,·,-30
CC(Oc1ccccc1)C(=O)N/N=C/c1ccccc1 (stereo not given),99,87,·,-24
COC(=O)CC1C(=O)NCCN1C(=O)C1c2ccccc2Oc2ccccc21 (stereo not given),121,87,·,-13
CCc1ccc(Nc2nc(C)cc(C)c2C(N)=O)cc1,104,77,103,-11
Cc1ccccc1Cn1c2ccccc2c2cnn(CC(=O)NCCc3ccc(Cl)cc3)c(=O)c21,108,86,103,-25
CC(C)(C)C1CCc2c(sc3nc(CCC(=O)N4CCc5ccccc5C4)[nH]c(=O)c23)C1 (stereo not given),·,·,97,-1
COC(=O)c1c(C)[nH]c(=O)[nH]c1=S,76,92,·,-22
Cc1nc(N2CCC(C(=O)NC3CCCCC3)CC2)c2c(C)c(C)oc2n1,·,·,99,-26
C=CCn1ccc2c(OCC(N)=O)cccc2c1=O,85,92,102,-38
CCOc1ccc(Br)cc1S(=O)(=O)N(C)C1CCCCC1,66,87,·,-12
Nc1nc(Nc2ccccc2)n[nH]1,100,70,102,-3
Cc1cccc(N2C(=O)c3ccc(C(=O)Nc4ccccn4)cc3C2=O)c1,112,78,103,-18
Cc1ccc2c(Cl)cc(Cl)c(OCC(=O)N(C)Cc3ccccc3)c2n1,114,89,·,-6
COc1ccccc1NC(=O)Cn1cc(C(=O)Nc2ccc(F)cc2)c(=O)c2ccc(C)nc21,·,·,103,-20
O=C1CCc2cc(S(=O)(=O)NC(Cc3ccccc3)C(=O)N3CCn4c3nc3ccccc34)ccc2N1 (stereo not given),109,96,106,-18
Cc1ccc2oc(=O)c3cnn(CC(=O)NC(C)C)c3c2c1,99,92,100,·
Cc1ccc(NCn2nnc3ccccc32)c(Br)c1,88,75,102,-30
CC[n+]1c(C)csc1Nc1c(C)cc(C)cc1C,96,74,96,0
CCCC(=O)c1cc(F)c(N2CCOCC2)cc1C,103,76,103,-5
COc1cccc(-c2nn3c(COc4ccc(Br)cc4)nnc3s2)c1OC,·,·,109,-24
Cc1csc(=O)n1CC(=O)OCC(=O)c1ccc(C(C)(C)C)cc1,95,85,·,-5

Molecule,Sa growth 42C,Sa growth 42C second temp,GIV-Gai inh,HCMV NEC inh
Cc1ccc2oc(=O)c3cnn(CC(=O)N4CCN(c5ccccc5)CC4)c3c2c1,·,·,110,-11
CCc1nc2ccccc2n1CC(O)COc1ccc(C)cc1 (stereo not given),·,·,107,-25
CCN1C=C(C(=O)OC)C(c2cc3c(cc2Br)OCO3)C(C(=O)OC)=C1,86,92,109,·
COc1ccc(CCC(=O)NCCc2nc(-c3ccc(OC)cc3)n[nH]2)cc1,·,·,96,-13
CCn1c(SCCN2CCOCC2)nnc1C1CCCCC1,97,72,99,-2
Cc1ccc(OCc2nc(SCC(=O)NCC(F)(F)F)n[nH]2)cc1,102,77,·,-29
Cc1noc(C)c1COC(=O)CC1Sc2ccccc2NC1=O (stereo not given),91,95,·,2
COc1ccc(N2C(=O)CCS2(=O)=O)cc1S(=O)(=O)Nc1ccc(F)c(Cl)c1,·,·,102,-14
O=C1c2ccccc2C(=O)N1Cc1ncc(-c2ccccc2)o1,122,90,·,-53
CS(=O)(=O)N1CCC(c2nc(-c3ccc(S(=O)(=O)NCC4CCCO4)cc3)no2)CC1 (stereo not given),83,77,99,-3
CSC1=N/C(=C\c2ccccc2Cl)C(=O)N1,102,81,102,·
CCCN(CCC)C(=O)CSc1nc2ccsc2c(=O)n1-c1ccc(Br)cc1,108,95,101,·
Cc1cccc2cc(CN(C(=O)c3ccco3)C3CCCC3)c(=O)[nH]c12,91,110,97,-2
CC(=O)Nc1cc(C(=O)NCCc2ccc(C)cc2)ccc1Sc1ccc(C)cc1,117,79,104,·
Cc1ccc(S(=O)(=O)Nc2cc3c(cc2N2CCCCC2)n(C)c(=O)c(=O)n3C)cc1C,·,·,102,-35
O=C(COc1ccc(Cl)cc1)NC(c1ccc(F)cc1)c1nnc(-c2ccccc2)o1 (stereo not given),·,·,104,3
CC1(C)c2ccccc2N(CCC(N)=O)C12C=Cc1c(ccc3ccccc13)O2 (stereo not given),93,36,104,-39
CC(=O)Nc1cc2nn(-c3ccccc3)nc2cc1C,103,95,·,-17
CCCCN(CC)C(=O)CSc1nc2n[nH]c(C)c2c(=N)n1-c1cccc(Cl)c1,90,90,98,·
COC(=O)c1c(C)nc(C)c(C(=O)OC)c1-c1cccs1,98,112,97,3
Cc1ccc(NS(=O)(=O)c2ccc3c(c2)CC(C)N3C(=O)C2CCC2)cc1Cl (stereo not given),77,116,107,·
Cc1ccc(CCC2C3=C(CCCC3=O)OC3=C2C(=O)CCC3)cc1,77,74,·,-19
O=C(OCc1ccccc1Cl)c1ccc(-c2nnn(Cc3ccccc3)n2)cc1,98,91,105,-17
CCOC(=O)c1[nH]c2ccccc2c1NC(=O)c1ccc(OCC)cc1,107,101,105,0
Cc1cc(C(=O)OCC(=O)N2CC3(C)CC2CC(C)(C)C3)c(C)o1 (stereo not given),87,97,·,-12

A second format for part of the listing above:
Under each structure: Sa growth 42C | Sa growth 42C second temp | GIV-Gai inh | HCMV NEC inh
CCn1c(=O)c2c(nc3n2CCCN3C2CCCCC2)n(C)c1=O
 : · | · | 106 | -22
O=C(Cn1ncn2c(cc3ccccc32)c1=O)NCc1ccccc1
 : 108 | 93 | 103 | -4
Cc1ccccc1Cn1c2ccccc2c2cnn(CC(=O)NCCc3ccc(Cl)cc3)c(=O)c21
 : 108 | 86 | 103 | -25

Structures listed so far with a tert-butyl group, in the order listed:
Molecule,Sa growth 42C,Sa growth 42C second temp,GIV-Gai inh,HCMV NEC inh
CC(C)(C)c1ccc(OCCCC(=O)Oc2ccc(-c3nnco3)cc2)cc1,102,107,·,-3
CC(C)(C)C1CCc2c(sc3nc(CCC(=O)N4CCc5ccccc5C4)[nH]c(=O)c23)C1 (stereo not given),·,·,97,-1
Cc1csc(=O)n1CC(=O)OCC(=O)c1ccc(C(C)(C)C)cc1,95,85,·,-5

Remaining list, next part.
Molecule,Sa growth 42C,Sa growth 42C second temp,GIV-Gai inh,HCMV NEC inh
Cc1cc(C)c(-n2cccc2CN)c(C)c1,79,56,·,-2
COc1ccc(NC(=O)c2cccc(S(=O)(=O)N3CCCC3)c2)c(OC)c1,100,93,·,6
CSc1nc(NC(N)=S)nc(NC(C)C)n1,121,63,105,-19
COC(=O)c1cc(OC)c(OC)cc1NC(=S)N1CCN(C(=O)c2ccco2)CC1,105,82,105,-10
CC(=O)N1CCCc2cc(S(=O)(=O)N3CCCC(C(=O)NCc4ccccc4)C3)ccc21 (stereo not given),101,90,98,·
C=CCc1c(C)[nH]c2ccccc2c1=O,85,89,110,2
CC1=C(C(N)=O)C(c2ccco2)C(C(N)=O)=C(C)N1,101,82,·,-17

Screening results deposited in PubChem by ICCB-Longwood Screening Facility, Harvard Medical School.
